Epigenetic reg = regulators of epigenetic silencing causing reporter derepression in mouse cells | Potency, µM (series often up to 53.9 µM), for the others: at the highest dose GFP activation, hits mostly activators | murine LDR cells, GFP reporter derepression, 30 h | hit rate 0.2% among 280,000; also: potency is read from the fitted curve at half-maximal effect; % of control where 0% means no effect; nearly all actives have a fitted effect of over 60% in size
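Derepression of a silenced CMV-GFP reporter in murine LDR cells is scored by enumerating GFP-positive cells with a laser-scanning microplate cytometer after 30 hours of treatment at 37 C.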
Lamin A splicing = LMNA splicing modulation | HeLa LMNA splicing GFP/RFP minigene ratio, 48 h | Potency, µM (titrated, usually from 46.1 µM), for the others: at the highest dose ratio change, negative = inhibition, most hits filed as inhibitors | hit rate 0.01% among 200,000; active = well fitted inhibition curve with a large enough effect in the signal ratio, with a control signal flat, not every such curve was filed as active; inconclusive = small, poorly fitted or top-dose-only effect, or effect the other way, or a change in a side signal; the % refers to the signal ratio; also: potency is read from the fitted curve at half-maximal effect; % is scaled to controls: 0 for no effect and ±100 for the full control effect
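S3 HeLa stable clones carrying a lamin A-EGFP splicing minigene plus DsRed2 were seeded at 600 cells/well in Opti-MEM with 2% FBS, pin-dosed and incubated 48 h at 37°C. Acumen cytometry (488 nm) gave the GFP/RFP total-intensity ratio.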
Luc counter = counter-screen: inhibitors of Kinase-Glo firefly luciferase; Kinase-Glo luciferase, ATP luminescence, 8 min; Potency, µM (top dose mostly 38.3 µM), for inactives: at the highest dose activity change, negative = inhibition, most hits filed as inhibitors; hit rate 0.28% among 200,000; AID 1379; also: potency is read from the fitted curve at half-maximal effect; % is scaled to controls: 0 for no effect and ±100 for the full control effect; nearly all actives have a fitted effect of over 60% in size
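Compounds were added to a substrate mix at pH 7.2 (50 mM imidazole, 10 uM ATP, within the enzyme's linear range), followed by Kinase-Glo detection reagent; luminescence was measured after 8 minutes at ambient temperature.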
CBFb-RUNX1 inh = CBF-beta/RUNX1 interaction disruption; Q01196+Q13951; AlphaScreen CBFb-His/RUNX1-biotin binding, biochemical; Potency, µM (doses to about 59.8 µM), without a hit: at the top dose activity, negative = inhibition, usual class: inhibitors; 230,000 tested, under 10 active; also: % of control where 0% means no effect
Target sequence (Q01196 whole entry, looked up): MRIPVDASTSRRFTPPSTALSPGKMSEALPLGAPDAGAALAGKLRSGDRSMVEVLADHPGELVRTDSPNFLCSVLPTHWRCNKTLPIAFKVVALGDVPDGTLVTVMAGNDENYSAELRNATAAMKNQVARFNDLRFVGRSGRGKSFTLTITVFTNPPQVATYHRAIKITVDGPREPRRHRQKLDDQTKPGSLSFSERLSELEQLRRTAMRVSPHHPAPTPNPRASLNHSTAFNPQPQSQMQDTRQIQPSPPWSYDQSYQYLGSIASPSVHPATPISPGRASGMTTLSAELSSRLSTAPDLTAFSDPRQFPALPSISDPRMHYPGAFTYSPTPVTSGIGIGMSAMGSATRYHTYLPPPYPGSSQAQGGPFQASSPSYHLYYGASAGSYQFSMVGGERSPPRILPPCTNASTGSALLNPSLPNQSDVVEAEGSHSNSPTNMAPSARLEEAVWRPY
Target sequence (Q13951 whole entry, looked up): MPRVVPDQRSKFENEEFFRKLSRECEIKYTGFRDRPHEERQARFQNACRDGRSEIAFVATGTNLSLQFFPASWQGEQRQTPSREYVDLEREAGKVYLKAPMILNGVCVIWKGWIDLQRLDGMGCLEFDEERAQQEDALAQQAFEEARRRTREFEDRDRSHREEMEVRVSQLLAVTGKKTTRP
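AlphaScreen proximity signal reports loss of binding between His-tagged CBF-beta and biotin-labelled RUNX1, each at 30 nM. Proteins are pre-associated for 20 minutes, compounds added for 15 minutes, then beads for 90 minutes, all at ambient temperature.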
IMPase Li cell = cell-permeable IMPase inhibitors with lithium potentiation; CHO-M1 cells, IP1 TR-FRET (IP-One), carbachol + lithium; Potency, µM (titrated, usually from 59.4 µM), inactives show at the highest dose activity, negative = IMPase inhibition, usual class: inhibitors; hit rate 0.35% among 210,000; AID 1457;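 also: IP1 builds up when IMPase is blocked and the TR-FRET signal falls; potency is read from the fitted curve at half-maximal effect; plate controls were basal vehicle for no effect and high inhibitor control for full effect; nearly all actives have a fitted effect of over 50% in size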
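CHO cells stably expressing M1 receptor (2000/well, cultured 16–30 h) treated 30 min at 37C with compound plus low lithium. Cytosolic IP1 by TR-FRET (665/620 ratio and 620 channel) after 10 min lysis; AC50 by Hill fit.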
HttQ103 aggreg = reduces HttQ103-GFP aggregates in PC12 cells | PC12 HttQ103-GFP aggregates, Acumen cytometry, 40 h | Potency, µM (titrated, usually from 46.1 µM), inactives show at the top dose activity change, negative = inhibition, actives largely listed as inhibitors | hit rate 1.1% among 220,000 | AID 1688; also: potency is read from the fitted curve at half-maximal effect; % is scaled to controls: 0 for no effect and ±100 for the full control effect; nearly all actives have a fitted effect of over 60% in size
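PC12 cells stably carrying ecdysone-inducible HTT exon 1 Q103–GFP were induced with tebufenozide (100 nM final) and treated with library compounds in titration. GFP aggregates in lysates were counted by laser scanning cytometry.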
* marks the source's active call; other numbers are inactive results; ? = inconclusive; / = no result given; [ ] = another dose, or the depositor's remark. Unless noted, calls follow the shape of the dose curve; as a rule, active = well fitted curve in the direction sought with a large enough effect; inconclusive = small, poorly fitted or top-dose-only effect, or another doubt; inactive = no such curve, though single readings can be large; an effect the other way counts as inactive or inconclusive. Not all compounds are listed; rates above refer to the full screens.

[1] Cc1ccc(C(c2nnnn2C2CCCCC2)N(C)C2CCCCC2)cc1 (stereo not drawn)
[2] O=C(N/N=C/c1ccc2c(c1)OCO2)c1ccc(NS(=O)(=O)c2cccs2)cc1
[3] CCOc1ccccc1N(C(=O)c1snc(C(N)=O)c1N)C(C(=O)NCCC(C)C)c1ccco1 (stereo not drawn)
[4] CCN(CC)C(=O)CSc1nnc(-c2cc3ccccc3cc2O)n1CC
[5] CCOC(=O)c1cc(C#N)c(Oc2cccc(C(F)(F)F)c2)nc1-c1ccccc1
[6] N=C1C(c2nc(-c3ccc(F)cc3)cs2)=C(O)CN1Cc1ccc(Cl)cc1
assay / entry | 1 | 2 | 3 | 4 | 5 | 6
Epigenetic reg | 0.0% | -2.5% | -4.3% | 2.7% | -1.8% | 1.6%
Lamin A splicing | 2.0% | -5.1%[46 µM] | ? | ? | -9.3% | 5.0%
Luc counter | -0.3% | -1.3% | 11.9% | -2.1% | 2.8% | -1.5%
CBFb-RUNX1 inh | 0.7% | 5.9% | -0.3% | 2.1% | 15.4% | 1.9%
IMPase Li cell | 18.9%[38.3 µM] | -8.3% | 6.9%[38.3 µM] | 16.9%[38.3 µM] | 66.9%[activator][38.3 µM] | -21.2%[38.3 µM]
HttQ103 aggreg | 11.2µM* | -13.6% | -11.9% | ? | ? | ?

[7] N=c1c2c(ncn1CCN1CCOCC1)Oc1ccc3ccccc3c1C2c1ccccc1 (stereo not drawn)
[8] CCOCCCNC(=O)c1ccccc1Br
[9] CCOC(=O)Cn1c(=O)cc(C)c2cccc(C)c21
[10] CCOc1ccc(-n2c(SC(C)C)nc3c(c2=O)SCC3)cc1
[11] CC(C)C[C@H](NC(=O)c1nc[nH]c1C(=O)N(C)Cc1ccccc1)C(=O)OC(C)(C)C
[12] Cc1ccc(NC(=S)N(CCCN2CCCC2)Cc2cccn2Cc2ccc(Cl)cc2)cc1
assay / entry | 7 | 8 | 9 | 10 | 11 | 12
Epigenetic reg | -2.4% | 0.0% | 1.1% | -1.1% | -0.9% | -4.3%
Lamin A splicing | ? | 2.3% | 13.1%[46 µM] | -18.7% | / | ?
Luc counter | -3.5% | -3.4% | -1.4% | -1.2% | / | 2.1%
CBFb-RUNX1 inh | -11.1% | 5.0% | 14.4% | -8.6% | 16.6% | -7.1%
IMPase Li cell | 5.8%[38.3 µM] | 20.5%[38.3 µM] | 13.3% | 28.4%[38.3 µM] | 9.9% | 7.0%
HttQ103 aggreg | 3.8% | ? | -32.5%[9.22 µM] | ? | 33.5%[9.22 µM] | ?

Reformatted as a markdown table: six of the compounds above
| no. | molecule | Epigenetic reg | Lamin A splicing | Luc counter | CBFb-RUNX1 inh | IMPase Li cell | HttQ103 aggreg |
| --- | --- | --- | --- | --- | --- | --- | --- |
| 11 | CC(C)C[C@H](NC(=O)c1nc[nH]c1C(=O)N(C)Cc1ccccc1)C(=O)OC(C)(C)C | -0.9% | / | / | 16.6% | 9.9% | 33.5%[9.22 µM] |
| 12 | Cc1ccc(NC(=S)N(CCCN2CCCC2)Cc2cccn2Cc2ccc(Cl)cc2)cc1 | -4.3% | ? | 2.1% | -7.1% | 7.0% | ? |
| 7 | N=c1c2c(ncn1CCN1CCOCC1)Oc1ccc3ccccc3c1C2c1ccccc1 (stereo not drawn) | -2.4% | ? | -3.5% | -11.1% | 5.8%[38.3 µM] | 3.8% |
| 10 | CCOc1ccc(-n2c(SC(C)C)nc3c(c2=O)SCC3)cc1 | -1.1% | -18.7% | -1.2% | -8.6% | 28.4%[38.3 µM] | ? |
| 9 | CCOC(=O)Cn1c(=O)cc(C)c2cccc(C)c21 | 1.1% | 13.1%[46 µM] | -1.4% | 14.4% | 13.3% | -32.5%[9.22 µM] |
| 8 | CCOCCCNC(=O)c1ccccc1Br | 0.0% | 2.3% | -3.4% | 5.0% | 20.5%[38.3 µM] | ? |

Continued.
[13] Oc1[nH]c2ccccc2c1C=NCC1CCCO1 (stereo not drawn)
[14] O=S(=O)(c1ccccc1)c1nc(-c2ccccc2)oc1N1CCCCC1
[15] O=C(Nc1cc(=O)c2ccccc2o1)N1CCCCC1
[16] C=CCn1c(Cc2csc(N)n2)nnc1SCC(=O)Nc1ccccc1C(F)(F)F
[17] COc1ccc(Nc2nc(-c3ccccc3)c(C(=O)Nc3cccnc3)s2)cc1
[18] N#Cc1cc2c(nc1SCC(=O)NCc1ccc3c(c1)OCO3)CCCCC2
assay / entry | 13 | 14 | 15 | 16 | 17 | 18
Epigenetic reg | -0.9% | -9.2% | -0.7% | 3.7% | 8.8% | 0.7%
Lamin A splicing | -13.7% | 8.8% | -1.7% | 10.7% | 12.0%[46 µM] | ?
Luc counter | 1.6% | -6.2% | -5.9% | -1.5% | -3.0% | -1.0%
CBFb-RUNX1 inh | 5.1% | 1.0% | 4.2% | ? | 9.7% | 4.4%
IMPase Li cell | -0.8% | 28.8%[38.3 µM] | -1.0%[38.3 µM] | 17.7%[38.3 µM] | -4.6% | 6.3%[38.3 µM]
HttQ103 aggreg | -4.1% | -3.3% | ? | 6.9% | -19.1% | -4.6%

[19] CC(C)(C)c1ccc(CN(Cc2ccccc2)C(c2ccccn2)c2nnnn2C(C)(C)C)cc1 (stereo not drawn)
[20] CC(C)CN(CC(C)C)S(=O)(=O)N1CCC(C(=O)NCCc2ccc(Cl)cc2)CC1
[21] Cc1cc(C)nc(NC(=S)Nc2cccc(Cl)c2Cl)c1
[22] N=C1C(c2nc3ccccc3[nH]2)=C(O)CN1c1ccccc1
[23] COc1ccc(C2C(C(=O)O)c3ccccc3C(=O)N2Cc2ccco2)cc1 (stereo not drawn)
[24] CCCCCOc1ccc(C(=O)C(c2ccccc2)N2CCOCC2)cc1 (stereo not drawn)
assay / entry | 19 | 20 | 21 | 22 | 23 | 24
Epigenetic reg | 1.0% | -1.0% | 5.8% | -3.3% | 0.0% | -2.0%
Lamin A splicing | ? | -12.1% | / | -19.8% | / | ?
Luc counter | -2.8% | -3.6% | 1.7% | 3.9% | / | 0.7%
CBFb-RUNX1 inh | -3.3% | 3.0% | 6.8% | -2.6% | 6.1% | 7.2%
IMPase Li cell | 24.6%[38.3 µM] | 11.0%[38.3 µM] | ? | ? | / | 7.8%
HttQ103 aggreg | ? | -9.2% | 24.0% | 10.4%[9.22 µM] | -20.6%[9.22 µM] | -14.6%

[25] Fc1cccc(Cn2cc(C(=S)N3CCCCC3)c3ccccc32)c1
[26] Clc1ccc(C(c2nnnn2C2CCCCC2)N(Cc2cccnc2)Cc2ccco2)cc1 (stereo not drawn)
[27] O=c1cc(-c2ccc3c(c2)OCCO3)oc2ccc(Cl)cc12
[28] CSc1nc(N2CCOCC2)c2c(c1C#N)CCCCC2
[29] COC(=O)CCC(=O)OC1(C)C(=O)C=C2C=C(C3CC3)N(c3ccccc3)C=C2C1=O (stereo not drawn)
[30] Cc1csc2c(=O)sc(NC(=O)c3ccco3)nc12
assay / entry | 25 | 26 | 27 | 28 | 29 | 30
Epigenetic reg | -0.9% | -0.7% | 1.2% | 0.0% | -0.2% | 0.1%
Lamin A splicing | ? | 2.1% | ? | -5.9% | -0.5%[9.22 µM] | /
Luc counter | 5.5% | -1.4% | -15.3% | -0.6% | -6.3%[7.66 µM] | /
CBFb-RUNX1 inh | -20.7% | -5.9% | 7.7% | 14.5% | 13.7%[13.1 µM] | 12.5%
IMPase Li cell | 10.4% | 18.6% | 10µM* | -3.7%[38.3 µM] | 10.7% | /
HttQ103 aggreg | ? | ? | -11.8% | ? | 1.2%[9.22 µM] | -0.9%[9.22 µM]

[31] O=C(Nc1ccc(OCC(=O)N2CCC(Cc3ccccc3)CC2)cc1)c1ccco1
[32] CCCc1ccc(C(=O)N2CCN(c3ccccc3OCC)CC2)cc1
[33] CC(C)(C)c1ccc(-c2nnc3sc(-c4ccccn4)nn23)cc1
[34] CCC(C)N=CC1=C(O)C(C(=O)OC)C(C)(C)CC1=O (stereo not drawn)
[35] O=C(NC1CCCCC1)C(c1ccc(Cl)cc1)N(C(=O)c1ccccn1)c1cccnc1 (stereo not drawn)
[36] Cc1sc2ncn(CC(=O)NCCCC(=O)N3CCN(c4ccccc4)CC3)c(=O)c2c1C
assay / entry | 31 | 32 | 33 | 34 | 35 | 36
Epigenetic reg | -2.4% | 0.0% | 0.8% | -1.2% | 8.2% | -0.9%
Lamin A splicing | -15.2% | -7.9% | -1.3% | -15.4% | / | 1.1%
Luc counter | 1.0% | 1.8% | -0.2% | -7.7% | -1.4% | -2.6%
CBFb-RUNX1 inh | 1.3% | 15.4% | ? | 9.4% | 3.4% | 2.0%
IMPase Li cell | 46.1%[activator][38.3 µM] | 13.5% | 17.1%[38.3 µM] | 1.0% | 8.2% | -14.6%[38.3 µM]
HttQ103 aggreg | -50.6% | -27.3% | -11.9% | -10.4% | 22.8%[9.22 µM] | 12.5%

Limited to HttQ103 aggreg and Luc counter (2 entries from above):
item	Compound	HttQ103 aggreg	Luc counter
23	COc1ccc(C2C(C(=O)O)c3ccccc3C(=O)N2Cc2ccco2)cc1 (stereo not drawn)	-20.6%[9.22 µM]	/
14	O=S(=O)(c1ccccc1)c1nc(-c2ccccc2)oc1N1CCCCC1	-3.3%	-6.2%
